UUG fidelity: alters start codon recognition fidelity in yeast | S. cerevisiae UUG-firefly luciferase reporter, luminescence/redox ratio | activity score, % at 18.7 µM | hit rate 0.13% among 350,000 | AID 602363;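 active means replicate mean at a twofold rise or more, about +100% in these data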;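 further: firefly luciferase made from a UUG start codon reports start codon fidelity; reporter light over untreated wells divided by growth signal over untreated wells; some hits fall short of that in this replicate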
HIV Env fusion: blocks HIV Env-driven cell-cell fusion | hit rate 1.1% among 360,000 | HeLa-JRFL Env/CEM21 cell fusion, luciferase | inhibition, % at 12.3 µM | AID 651610;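 active means mean replicate inhibition score of at least 50 and every replicate individually at or above 50; inconclusive means only one of the two criteria met; inactive means mean below 50 and not all replicates reaching 50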;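 further: 0% = plate neutral controls and 100% = maraviroc near 300 nM; one replicate is shown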
CSC inhib: cancer stem cell inhibition; cancer stem cell-like cells viability, luminescence; inhibition, % at 7.5 µM; hit rate 1.1% among 300,000;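 active means mean at 75% or more and at least half the replicates too; inconclusive means mean and replicates disagree; tested in HMLE shEcad cells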;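 further: 0% = median of negative and 100% = median of positive control wells; the first replicate is given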
PABP polyA inh: blocks human PABP binding to poly(A) RNA; P11940; fluorescence polarization; inhibition, % at 35 µM; hit rate 1% among 290,000; AID 2014;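 active means 50% or more with normal probe brightness, or confirmed in later tests; inconclusive means above 50% with abnormal brightness, or retests that disagree; inactive means below 50% or failed in later tests; about a fifth of its hits are not listed in these tables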;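 further: calls also rest on retests at 20 µM and on dose response follow-up; controls were probe without protein and protein plus probe with vehicle; some compounds called inactive have numbers as strong as hits; many hits fall short of the cut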
Target sequence (P11940 whole entry, looked up): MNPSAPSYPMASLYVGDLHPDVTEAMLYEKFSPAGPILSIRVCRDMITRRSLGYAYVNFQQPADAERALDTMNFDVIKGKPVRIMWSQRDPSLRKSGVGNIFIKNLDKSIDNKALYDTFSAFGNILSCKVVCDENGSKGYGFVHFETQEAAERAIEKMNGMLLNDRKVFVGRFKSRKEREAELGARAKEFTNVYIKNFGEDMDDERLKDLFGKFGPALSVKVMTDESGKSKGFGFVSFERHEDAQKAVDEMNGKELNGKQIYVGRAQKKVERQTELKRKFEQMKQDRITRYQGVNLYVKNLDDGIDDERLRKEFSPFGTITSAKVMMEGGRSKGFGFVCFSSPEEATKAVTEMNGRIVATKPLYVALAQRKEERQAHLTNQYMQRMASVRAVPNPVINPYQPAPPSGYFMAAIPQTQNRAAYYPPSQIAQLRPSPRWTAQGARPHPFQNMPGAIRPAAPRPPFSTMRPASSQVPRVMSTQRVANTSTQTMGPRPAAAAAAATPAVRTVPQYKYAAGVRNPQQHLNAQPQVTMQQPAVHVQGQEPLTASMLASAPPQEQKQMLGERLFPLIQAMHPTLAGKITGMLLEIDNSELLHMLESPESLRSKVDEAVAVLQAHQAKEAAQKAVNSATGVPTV
MT1-MMP act inh: blocks activation of human MT1-MMP. hit rate 0.061% among 360,000. HT1080 RFP-PRO-GFP cells, GFP/RFP ratio fluorescence, overnight; percent of plate control window, DMSO zero. GFP/RFP ratio change, % at 20 µM. P50281;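 active means GFP/RFP ratio change of at least 30% with cell ATP level not reduced by more than half and red fluorescence within 50% of control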; further: strong numbers were not always called active
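Assay system: HT1080 cells carrying an RFP-PRO-GFP reporter | Dosing: Single dose of 20 µM compound, 1% DMSO final | Incubation: Cells overnight before dosing, compound overnight, 37 °C, 5% CO2 | Evaluation: GFP/RFP fluorescence ratio | Control set: DMSO and RFP-L50D-GFP cell wells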
Rce1 inh: blocks yeast Ras-converting enzyme; calls only; Q03530; yeast membranes, quenched prenylated peptide cleavage fluorescence; hit rate 0.27% among 290,000; AID 2563;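 active means fall in fluorescence gain of 50% or more versus controls, with final raw signal at or below 3038400; inconclusive means same 50% fall but final raw signal above 3038400; inactive means fall in fluorescence gain under 50%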;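 further: plate controls were neutral control wells for no effect and wells lacking membranes for full effect; tested at 10 µM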
Target sequence (Q03530 whole entry, looked up): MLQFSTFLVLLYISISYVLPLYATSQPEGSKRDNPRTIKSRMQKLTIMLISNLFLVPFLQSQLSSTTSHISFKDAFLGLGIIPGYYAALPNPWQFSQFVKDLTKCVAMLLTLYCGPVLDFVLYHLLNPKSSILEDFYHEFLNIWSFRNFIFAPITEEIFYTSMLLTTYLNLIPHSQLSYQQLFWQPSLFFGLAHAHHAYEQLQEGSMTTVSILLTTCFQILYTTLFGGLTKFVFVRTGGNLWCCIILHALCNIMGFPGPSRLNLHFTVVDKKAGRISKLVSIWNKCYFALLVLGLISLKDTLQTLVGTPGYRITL
eIF4H FP inh: inhibitors of RNA binding by human eIF4H; Q15056; eIF4H fluorescence polarization binding assay; inhibition, % at 35 µM; hit rate 0.94% among 290,000;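 active means 50% or more with normal probe brightness, or confirmed in later tests; inconclusive means above 50% with abnormal brightness, or retests that disagree; inactive means below 50% or failed in later tests; about a fifth of its hits are not listed in these tables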;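 further: calls also rest on retests at 20 µM and on dose response follow-up; 0% = protein and probe with vehicle and 100% = probe without protein; strong numbers were not always called active; many hits fall short of the cut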
eIF4H FP inh retest: also measured in eIF4H FP inh; calls as there; inhibition, %; compound at 20 µM; confirmation average;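 mean of two retest wells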
PABP polyA inh retest: recorded beside PABP polyA inh, whose call it bears; inhibition, %; compound at 20 µM; confirmation repeats;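 mean of two retest wells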
MT1-MMP act inh RFP: recorded beside MT1-MMP act inh, whose call it bears; RFP signal change, %; measured here: RFP expression control read;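 0 = vehicle wells; hits needed this value within 50% of zero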
An asterisk follows results filed as active; i = inactive; ? = inconclusive; / = not tested or not shown; & = joins results of further samples; [ ] = remark or other dose.

SMILES	UUG fidelity	HIV Env fusion	CSC inhib	PABP polyA inh	MT1-MMP act inh	MT1-MMP act inh RFP	Rce1 inh	eIF4H FP inh	others
CCC(CC)NC(=O)c1ccccc1Oc1ccccc1	-3	/	-7	-3	0	1	i	6
COc1cc(NC(=O)c2ccccc2Cl)c(OC)cc1NC(=O)CN1CCCCC1	/	-24	9	5	3	0	i	1
CCCOc1ccc(/C=N/NC(=O)CSc2ccccn2)cc1OC	-4	-18	8	-4	2	-2	i	16
S=C(Nc1cccc(Cl)c1Cl)NC1CCN(Cc2ccccc2)CC1	-13	-2	0	-5	2	-6	i	9
COc1ccc(OC)c(NC(=O)CNC(=O)Cn2cnc3ccccc3c2=O)c1	5	/	0	-15	3	3	i	2
Cc1ccc(NC(=O)CN(C)C(=O)CNC(=O)c2sc3ccccc3c2Cl)cc1	-12	-16	4	/	-5	-1	i	/
O=[S@]1Oc2ccccc2-c2ccccc21	-20	-18	-5	/	3	2	i	/
COc1cc(C(=O)Nc2cccc3c2CCCC3)cc(OC)c1OC	0	0	-5	-2	2	-4	i	-12
COc1ccc(/C=N/n2cnc3c([nH]c4ccccc43)c2=O)cc1COc1ccccn1	/	/	7	-10	/	/	i	-3
CCOc1cc([C@@H]2C[C@H]3CN(c4ccccc4)C(=O)[C@]34CCCN24)ccc1OC	2	-18	18	0	-8	-1	i	57*	eIF4H FP inh retest=68*;PABP polyA inh retest=47
COC(=O)CCCC1=CC2=CC(=O)C(C)(OC(=O)CCc3ccccc3)C(=O)C2=CO1 (centres undefined)	-10	/	5	?	9	32	i	?
O=C(NC1CCCCC1)[C@@H]1CC=C[C@@H]2CCN(C3CCCCC3)C(=O)[C@@H]21	-6	-28	-15	/	-1	1	i	/
O=C(N/N=C/c1ccc(-c2cccc(C(F)(F)F)c2)o1)c1ccccc1Br	/	/	64	-4	-21	0	i	-6
Cc1csc(SCC(=O)Nc2ccccc2)n1	-21	-14	-10	-6	2	0	i	-6
CCOC(=O)C1(Cc2cccc(Cl)c2)CCCN(C(=O)C(C)(C)C)C1 (centres undefined)	-6	3	-8	5	2	-5	i	10
COc1ccc(N2C(=O)CC(Sc3ncccc3C(=O)O)C2=O)cc1 (centres undefined)	-15	/	10	16	1	6	i	-1
Cc1cc2occ(CC(=O)N(C)CC(=O)Nc3ccccc3Br)c2cc1C	32	9	-11	/	2	0	i	/
CCOC(=O)C1(Cc2cccc(OC)c2)CCCN(Cc2cnn(C)c2)C1 (centres undefined)	/	-1	3	-4	-2	3	i	5
CCOC(=O)c1c[nH]c(=O)c(Br)c1O	/	-40	-6	-4	4	8	i	2
Cc1cnn(-c2cc(N/N=C/c3cccc(F)c3)ncn2)c1	-14	/	-14	9	3	8	i	-10
O=C(NCCc1c[nH]c2ccccc12)/C(=C\c1cccs1)NC(=O)c1ccccc1	/	10	6	1	1	-1	i	-3
C=CCNC(=O)CCCC(=O)NCC=C	-12	-196	-25	-8	0	0	i	-4
O=C(CCC(=O)N(CC(=O)NC1CCCC1)Cc1cccs1)Nc1nccs1	-9	3	/	2	-1	-2	i	0
COc1ccc(/C(O)=C2/C(=O)C(=O)N(CC3CCCO3)C2c2ccc(OC)c(OC)c2)cc1 (centres undefined)	-9	/	-11	-4	4	4	i	-7
CCC(C)(C)NC(=O)C(c1cccc(OC)c1OC)N(C(=O)CCC(=O)Nc1cc(C)on1)c1ccc2c(c1)OCCO2 (centres undefined)	8	0	5	9	-5	-8	i	5
Cc1c(NC(=O)CSc2nnnn2-c2ccc(O)cc2)c(=O)n(-c2ccccc2)n1C	-17	21	-6	1	1	-3	/	-6
CS/C(N)=N/S(=O)(=O)c1ccc(NC(C)=O)cc1	/	-1	2	-3	1	3	i	0
O=C(COC(=O)c1ccccc1-n1cnnn1)c1ccc(F)c(F)c1	-10	/	/	/	7	7	i	/
NC(=O)c1nsc(C(=O)N(CC(=O)NC2CCCC2)Cc2ccc3c(c2)OCO3)c1N	/	5	/	-3	1	3	i	-8
CS(=O)(=O)N1CCN(CCN2C(=O)c3cccc4cccc(c34)C2=O)CC1	/	-81	-2	-1	2	3	i	1
O=C(COc1ccc(S(=O)(=O)N2CCCCC2)cc1)Nc1ccccc1F	1	14	7	9	2	0	i	5
CCC(C)n1c(SCC(=O)NCc2ccco2)nnc1-c1cccc(S(=O)(=O)N2CCOCC2)c1 (centres undefined)	/	/	-10	-1	-1	2	i	-6
CCOc1cccc(SCc2noc(C(=O)NCCOC)c2C(=O)O)c1	1	-3	1	1	0	4	i	-2
Cc1ccc(-c2noc(CNC(=O)c3ccc4c(c3)OCO4)n2)cc1	-14	-5	4	-3	2	2	i	1
CN(C)c1ccc(S(=O)(=O)N2CCCCC2)cc1NC(=O)CCNC(=O)c1ccc(Cl)cc1	-11	-8	/	/	3	-1	/	/
O=C(NCc1ccco1)C1CC(c2cc(C(F)(F)F)cc(C(F)(F)F)c2)=NO1 (centres undefined)	-17	-241	61	3	22	3	i	2
Cc1cc(C)n2nc(SCC(=O)N3CCOCC3)nc2n1	-11	2	11	/	-2	2	/	/
CCS(=O)(=O)c1ccc2oc(SCC(=O)Nc3ccc(OC)c(OC)c3)nc2c1	/	8	-4	-1	3	1	i	-7
COc1ccc(N(C(=O)CCC(=O)Nc2cc(C)on2)C(C(=O)NC2CCCC2)c2ccco2)cc1 (centres undefined)	/	22	-4	-2	-1	3	i	-14
COc1ccc(C(C)=O)cc1CN1C(=O)NC(CC(C)C)C1=O (centres undefined)	/	6	/	13	3	0	i	-6

Of the compounds above, 3 contain bromine:
SMILES	UUG fidelity	HIV Env fusion	CSC inhib	PABP polyA inh	MT1-MMP act inh	MT1-MMP act inh RFP	Rce1 inh	eIF4H FP inh	others
O=C(N/N=C/c1ccc(-c2cccc(C(F)(F)F)c2)o1)c1ccccc1Br	/	/	64	-4	-21	0	i	-6
Cc1cc2occ(CC(=O)N(C)CC(=O)Nc3ccccc3Br)c2cc1C	32	9	-11	/	2	0	i	/
CCOC(=O)c1c[nH]c(=O)c(Br)c1O	/	-40	-6	-4	4	8	i	2

The list continues.
SMILES	UUG fidelity	HIV Env fusion	CSC inhib	PABP polyA inh	MT1-MMP act inh	MT1-MMP act inh RFP	Rce1 inh	eIF4H FP inh	others
C1=CC2c3ccccc3NC(c3ccncc3)C2C1 (centres undefined)	-7	-69	4	10	4	8	i	4
CCOC(=O)c1cnc(SCC(=O)OC)nc1N	/	-2	-15	4	1	3	i	7
COc1cccc(CNC(=O)c2ccccc2SCC(=O)N2CCCC2)c1	-11	4	5	/	2	3	i	/
Cc1ccc(C2/C(=C(\O)c3ccc4c(c3)OCCO4)C(=O)C(=O)N2Cc2cccnc2)cc1 (centres undefined)	-13	-2	1	1	0	2	i	-2
COc1cccc(CN(CC(=O)NCc2ccccc2)S(=O)(=O)CCl)c1	13	12	-10	/	2	0	/	/
CCC(=O)N1CCN(c2cc(N3CCN(C)CC3)c(F)cc2[N+](=O)[O-])CC1	10	14	3	8	-3	3	i	5
Nn1cc(-c2ccccc2)nc1SCC(=O)NCC1CCCO1 (centres undefined)	/	3	-5	10	3	7	i	8
CCCCSc1n[nH]c(=S)c2nc[nH]c12	-14	-2	/	/	8	-4	/	/
CC[C@H](C)[C@H](NC(=O)[C@H](Cc1ccc(O)cc1)NC(=O)[C@@H](N)C(C)C)C(=O)N[C@@H](Cc1cnc[nH]1)C(=O)N1CCC[C@H]1C(=O)N[C@@H](Cc1ccccc1)C(=O)O	-6	/	-8	7	2	8	i	-9
CCc1ccc(NC(=O)Cn2c(=O)c3cccn3c3ccccc32)cc1	-1	4	20	-6	-2	-2	i	-10
CN(CCCCCCN(C)Cc1ccccc1O)Cc1ccccc1O	-12	-24	10	9	-1	-3	i	3
COc1ccccc1CC(=O)N1CCN(c2ccccc2F)CC1	-21	-3	-12	-5	3	-3	i	-2
Cc1ccc(-c2nn(-c3ccccc3)cc2NC(=O)CCl)cc1	/	-2	28	15	-4	0	i	6
O=C(Nc1ccncc1)Nc1ccc(F)c(Cl)c1	-13	-14	-3	-12	-2	-7	i	-9
O=C(CN1C(=O)CCC1=O)Nc1ccc2c3c(cccc13)CC2	-2	/	-1	-6	13	-1	i	7
Cc1ccc(OC(=O)CCC(=O)Nc2ccc(S(=O)(=O)Nc3cc(C)on3)cc2)cc1	-5	/	-3	-9	-4	4	i	-1
COc1ccc([N+](=O)[O-])cc1NC(=O)c1ccccc1N(C)S(C)(=O)=O	-16	1	-14	-4	2	6	i	-6
COc1ccc(NS(=O)(=O)c2cccc(C(=O)NCCc3ccc(S(N)(=O)=O)cc3)c2)cc1	-11	-1	5	/	-2	0	/	/
CC(=O)NCCc1ccc(O)cc1	-6	/	-9	-1	7	3	i	2
COc1cc(C(=O)Nc2c(C(=O)O)[nH]c3ccc(C)cc23)cc(OC)c1OC	-7	19	-4	9	0	-1	i	2
O=C(Nc1ccccc1Cl)c1ccc2nsnc2c1	/	-25	/	-8	2	7	i	-7
O=C(CSc1nnc2ccc(-c3ccccn3)nn12)Nc1ccccc1F	/	0	-5	/	-1	-2	i	/
C/C(=N\NC(=O)c1c(Cl)cnn1C)c1cccc(NC(=O)COc2ccccc2)c1	-13	-37	17	4	2	-4	i	-6
CCc1nc(SCC(=O)NNC(=O)c2ccc(OC)cc2)c2ccccc2n1	/	4	-14	2	-5	1	i	-7
C[C@H](CO)N1C[C@H](C)[C@@H](CN(C)S(C)(=O)=O)Oc2ccc(NC(=O)c3ccncc3)cc2C1=O	-7&-3	-1[16.7 µM]	/	/	0	1	/	/
Fc1ccc(-c2ccc3c(c2)C2CC3CCN2)cc1 (centres undefined)	-10	-3	/	/	3	3	/	/
COc1ccccc1CC(NC(C)=O)C(=O)NC1CCN(C(=O)c2ccc(C)cc2)CC1 (centres undefined)	-1	1	-16	3	1	2	/	-13
O=C(C[C@@H]1C/C=C\CCCC(=O)OC[C@@H](c2ccccc2)NC1=O)NCCO	-7	8	-9	/	1	2	/	/
O=[N+]([O-])c1ccc(Oc2cccnc2)nc1	/	-16	-4	-11	0	3	i	-11
COCC(=O)Nc1cc(C)cn(Cc2ccc(F)cc2)c1=O	-33	8	-5	5	4	1	i	-11
Cc1cc(C)c(C)c(S(=O)(=O)NC(C(=O)O)C(C)C)c1C (centres undefined)	-14	5	-7	-9	-1	3	i	2
CCCCn1c(NC(=O)c2ccccc2)nc2ccccc21	-26	24	15	2	1	-8	i	13
COc1cccc(Oc2ccc(S(=O)(=O)N3CCCC3)cc2[N+](=O)[O-])c1	-9	1	/	2	-5	-6	i	1
COc1ccnc(Oc2ccc(F)cc2)c1C(=O)N/C=N/OCc1c(Cl)cccc1Cl	-21	/	38	-7	2	-4	i	-3
COc1ccc(N2CCN(C(=O)CSc3nnc(-c4ccco4)n3C)CC2)cc1	/	6	-1	0	/	/	i	7
O=C(NNc1ccc(Cl)cc1)c1c(F)cccc1Cl	/	3	19	-9	2	1	i	2
COc1ccc([C@@H]2C[C@H](c3ccccc3)Oc3cc(C)cc(C)c32)cc1	-18	10	/	-2	2	-1	i	-2
O=C(COc1cc2oc(=O)c3c(c2cc1Cl)CCC3)Nc1ccccn1	-7	-3	14	-4	-1	-3	i	-5
O=C1CSC(=S)N1Cc1cccnc1	-1	/	60	19	27	91	i	10

Compound activity deposited in PubChem BioAssay by several laboratories.
